Assay outcomes as filed in PubChem.
Mtb growth – M. tuberculosis H37Rv growth inhibitors, H37Rv strain (AID 1626). M. tuberculosis H37Rv growth inhibition; higher % means a stronger effect. one-dose inhibition, % at 10 µM; IC50 in µM for titrated hits. 220,000 tested, 0.95% active;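 active means confirmed in a dose series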;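 further: bacteria incubated seven days before Alamar blue readout; 0% = bacteria only wells and 100% = bacteria with antibiotic wells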
RecA intein inh – inhibitors of M. tuberculosis RecA intein splicing; inhibition, %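 (about 9 µM by stock and volumes)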; cell-free RecA intein splicing, fluorescence; AID 2221; 290,000 tested, 0.75% active; in the data active means inhibition above about 30%;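 further: 0% = vehicle wells and 100% = reference inhibitor control wells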
Target sequence (P9WHJ3 whole entry, looked up): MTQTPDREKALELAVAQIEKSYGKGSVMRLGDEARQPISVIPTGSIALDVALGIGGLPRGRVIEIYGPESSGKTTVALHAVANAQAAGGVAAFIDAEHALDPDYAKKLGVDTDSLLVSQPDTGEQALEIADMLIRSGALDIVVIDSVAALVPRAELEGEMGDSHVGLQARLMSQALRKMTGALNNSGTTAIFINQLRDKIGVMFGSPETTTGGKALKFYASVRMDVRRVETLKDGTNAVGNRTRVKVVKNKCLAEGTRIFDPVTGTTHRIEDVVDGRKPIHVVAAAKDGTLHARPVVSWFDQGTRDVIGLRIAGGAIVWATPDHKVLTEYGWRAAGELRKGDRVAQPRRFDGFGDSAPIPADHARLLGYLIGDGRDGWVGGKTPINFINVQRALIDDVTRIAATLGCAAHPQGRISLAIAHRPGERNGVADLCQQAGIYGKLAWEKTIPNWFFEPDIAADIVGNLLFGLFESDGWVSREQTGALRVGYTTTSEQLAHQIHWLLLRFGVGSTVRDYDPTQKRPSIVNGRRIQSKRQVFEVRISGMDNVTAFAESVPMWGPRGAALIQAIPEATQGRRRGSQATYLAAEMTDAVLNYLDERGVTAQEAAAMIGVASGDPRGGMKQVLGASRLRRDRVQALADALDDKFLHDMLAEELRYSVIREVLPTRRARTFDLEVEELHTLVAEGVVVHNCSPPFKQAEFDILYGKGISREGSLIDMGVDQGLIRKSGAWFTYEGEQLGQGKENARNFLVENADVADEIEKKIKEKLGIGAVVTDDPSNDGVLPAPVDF
Arbovirus anti – antivirals against arbovirus infection | arbovirus infection cell-based antiviral screen | AID 1251 | inhibition, % at 10 µM | 200,000 tested, 0.37% active;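 active means inhibition from about 30%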;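 further: bluetongue infection of BSR cells; cell survival read as ATP light after 72 h; 0% = infected wells without compound and 100% = uninfected wells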
Mtb bLac sens – beta-lactam sensitization of Mtb H37Rv; 330,000 tested, 0.27% active; M. tuberculosis H37Rv growth with meropenem, percent inhibition; hits of this screen are not shown here; inhibition, % at 25 µM;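 active means about 74% or more and at least 40 points above the plate without the antibiotic, then above 30% in a dose series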;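 further: growth measured after seven days incubation then overnight dye step; 0% = bacteria only wells and 100% = bacteria with antibiotic; twin plates without the antibiotic show which effects depend on it; some results filed as inactive read as strong as hits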
YopH inh – YopH (Yersinia) phosphatase inhibition; inhibition, %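 (about 10 µM by stock and volumes)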; fluorescence Ex485/Em525; 140,000 tested, 0.16% active;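 active means inhibition of 50% or more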;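 further: controls were vehicle for no effect and minimum signal wells for full effect; inactives centre near -20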
Arbovirus anti repeat – further read-out of Arbovirus anti, marked with its call; inhibition, %; measured here: 10K subset replicate screen; many hits read low in the repeat;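 first of two repeat runs on a subset; 0% = infected and 100% = uninfected wells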
An asterisk follows results filed as active; · = no result given. Only part of the results is shown, so the mix of outcomes need not match the whole.

SMILES	Mtb growth	RecA intein inh	Arbovirus anti	Mtb bLac sens	YopH inh	others
CC(C)(C)c1ccc(C(=O)N2CCC(C(=O)NCC3CCCO3)CC2)cc1 (stereo not drawn)	-4%	1.6	1	-19	-23
O=C(NCCS(=O)(=O)NCc1ccccn1)c1ccccc1	·	-1.4	·	-8	·
CCC(=O)Nc1ccc(NC(=O)CSc2nnc(-c3ccco3)n2C)cc1	·	0.6	·	1	·
CCOc1ccccc1NC(=O)CSc1nc2ccccc2nc1N1CCOCC1	·	14	·	0	·
CC1=NN(C(N)=S)C(=O)C1N=Nc1cccc(C)c1 (stereo not drawn)	4%	0.3	·	98	·
Cn1c(=O)c2c(nc(Oc3cccc(O)c3)n2C)n(C)c1=O	·	-2.5	·	-5	·
Cn1c(=O)c(C(=O)CCl)c(N)n(CC2CC2)c1=O	-9%	·	0	-1	-19
Cc1ccc(CN2CC3CC(C2)c2cccc(=O)n2C3)cc1 (stereo not drawn)	2%	2.0	5	7	-39
Cc1cccc(C(=O)NC(C)C2CC3CCC2C3)c1 (stereo not drawn)	·	-0.6	·	3	·
O=C(COC(=O)c1ccc2c(c1)OCO2)Nc1ccccc1	0%	0.6	2	-9	·
O=C(COC(=O)c1cn(-c2ccccc2)nc1-c1ccccc1)c1cccc([N+](=O)[O-])c1	2%	2.0	0	-4	-50
Cc1ccc(NC(=S)N(CCCN2CCC(C)CC2)Cc2ccco2)cc1C	6%	-2.3	6	-4	·
O=C(COC(=O)c1n[nH]c(=O)c2ccccc12)c1ccc(Cl)cc1	·	-1.1	0	5	-22
CC(OC(=O)COc1ccc(C#N)cc1)C(=O)Nc1ccc(Cl)cn1 (stereo not drawn)	·	2.5	·	-2	·
Cn1nnnc1SCC(=O)N(C1CCCCC1)C1CCCCC1	·	1.8	3	-1	-29
CCc1nc2ccc(C(=O)N(C)CC(=O)Nc3ccc(Cl)c(C(F)(F)F)c3)cc2nc1CC	·	0.6	·	-21	·
CCn1c2ccccc2c2cc(NC(=O)c3cccc(OC)c3OC)ccc21	3%	2.3	-16	76	-3
CC1CCN(CC(O)COc2ccc(C(=O)c3ccccc3)cc2)CC1 (stereo not drawn)	·	0.0	·	-8	·
O=C1c2ccccc2C(=O)N1Cc1nc2ccccc2o1	-2%	-2.0	0	2	-29
CC1(C)CC(=O)C(N=Nc2ccc(S(=O)(=O)N3CCOCC3)cc2)=C(O)C1	-8%	-0.4	·	-6	·
COc1ccc(N2CCN(C(=S)Nc3cccc(C)c3C)CC2)cc1	1%	-3.3	4	-1	-49
O=[N+]([O-])c1cccnc1SCc1ccccc1	·	-0.6	·	11	·
CC(C)NC(=S)Nc1c(N)[nH]c(=O)[nH]c1=O	-11%	-2.3	·	-6	·
COC(=O)[C@H]1C[C@H]1[C@@H](NC(=O)c1cccnc1)c1ccccc1	-4%	-0.1	·	-5	·
CC(C)C[C@H](NC(=O)C1CCN(S(=O)(=O)c2ccccc2)CC1)C(=O)NCc1ccccn1	·	4.0	·	-1	·
Cc1ccc(NC(=S)N(Cc2cccs2)Cc2cc3cc(C)cc(C)c3[nH]c2=O)cc1	-2%	-4.7	0	-5	-27
COc1cccc(NC(=O)Cc2ccc(C)cc2)c1	10%	1.6	2	-8	-13
Cc1ccc(N2CCN(S(=O)(=O)c3ccc4c(c3)NC(=O)C(C)C(=O)N4)CC2C)cc1 (stereo not drawn)	·	-3.0	·	-1	·
CS(=O)(=O)c1ccc2nc(N)sc2c1	0%	2.0	1	4	-42
CC1(C)Cc2nc3nc(SCC(=O)Nc4ccccc4)nc(N)c3cc2CO1	-1%	-1.2	-3	-2	·
COCn1ccnc1C(O)(c1ccc(OC)cc1)c1ccc(OC)cc1	-8%	-1.7	0	6	-12
CC1=C(C#N)C(/C=N/OCc2ccc(F)cc2Cl)CC(=O)N1 (stereo not drawn)	-8%	7.7	0	4	·
C=CCn1c(O)c2ccc(C(=O)N=NC(=O)COc3ccc(OC)cc3)cc2c1O	·	-0.3	·	-5	·
COc1ccccc1-n1c(SCC(=O)Nc2ccccc2C)nc(O)cc1=O	-5%	0.8	0	-1	-34
CC1(NC(=O)C2CCN(C(=O)Nc3ccccc3)CC2)CCS(=O)(=O)C1 (stereo not drawn)	·	1.5	·	-12	·
N#Cc1c(-c2ccccc2)nc(SCC(=O)Nc2ccc(OC(F)(F)Cl)cc2)[nH]c1=O	·	19	·	-9	·
CCOCCCNC(=O)c1cc(Sc2nnc(C)s2)nc2ccccc12	-1%	-1.3	·	-6	·
COc1ccc(N2CCN(c3oc(Cc4cccc5ccccc45)nc3C#N)CC2)cc1	8%	3.8	-2	0	20
Cc1ccc2nc(N3CCN(C(=O)c4ccco4)CC3)c3nncn3c2c1	·	-2.1	·	-1	·
CC(C)[C@H](NC(=O)c1cccc(CN(Cc2ccccc2)C(=O)c2ccccc2)c1)C(=O)O	·	1.3	·	-3	·
COc1ccc(Cc2nnc(SCC(=O)Nc3ccc(C)cc3C)[nH]c2=O)cc1	·	-1.1	·	-9	·
Cc1cc(C)nc(Sc2ccc([N+](=O)[O-])cc2[N+](=O)[O-])n1	21%	-11	-1	6	-29
CCOc1ccc(Nc2nc(Cc3nnc(SCC(=O)O)o3)cs2)cc1	3%	2.6	-3	7	-54
Cc1ccc(N(CC(=O)N2CCN(Cc3ccccc3)CC2)S(C)(=O)=O)cc1C	·	1.9	·	-7	·
COc1cccc(-n2nc(C(=O)N3CCN(Cc4ccccc4)CC3)c3ccccc3c2=O)c1	2%	2.8	-2	0	·
COc1ccc(N2CCN(C(=O)NCc3cccc(OC)c3)CC2)cc1	·	-3.6	·	-7	·
CS(=O)(=O)c1ccc(CNC(=O)[C@]2(C(F)(F)F)C[C@H](CCc3ccccc3)CCCO2)cc1	-3%	0.4	·	-17	·
CC1=C(C(=O)Nc2ccc(Cl)cc2)C(c2ccco2)NC(=O)N1 (stereo not drawn)	-13%	-3.5	6	-8	-15
Cc1cccc(-c2nc(CN3CCCC(C(=O)NC4CCC(C)CC4)C3)c(C)o2)c1 (stereo not drawn)	3%	7.2	-25	99	-10
COc1ccc(-c2c(-c3ccc(OC)c(C)c3O)n[nH]c2C)cc1	·	8.3	·	0	·
O=C(Cn1c(CN2CCCCC2)nc2ccccc2c1=O)Nc1ccccc1	-4%	1.4	1	-6	-14
Cc1cc(C)c(C#N)c(Nc2ccccc2)n1	4%	-4.2	-2	3	-20
CC(=O)N1CCN(C(=O)CSc2nc3c(cnn3-c3ccccc3)c(=O)[nH]2)CC1	-8%	-0.4	2	2	-46
Cc1ccccc1NC(=O)Cn1c(C)nc2ccc(N)cc2c1=O	-1%	2.6	4	-17	-6
O=C(NC1(C(F)(F)F)NC(=O)N(Cc2cccnc2)C1=O)c1ccncc1 (stereo not drawn)	-6%	-1.1	10	1	-5
Cc1ccc(C(=O)OCC(=O)N(CC(C)C)c2c(N)n(Cc3ccccc3)c(=O)[nH]c2=O)s1	·	-5.5	·	-10	·
CCOc1ccc2[nH]cc(C(=O)N3CCN(CC)CC3)c(=O)c2c1	3%	1.3	-5	0	-15
Cn1nnnc1SCC(=O)Nc1cc(C(=O)O)cc(C(=O)O)c1	4%	0.8	4	-10	1
O=C(CCCC(=O)c1ccccc1)NCCc1ccccc1F	·	0.1	·	1	·
COc1ccc(-c2noc(CSc3nnc(-c4ccccc4)n3C)n2)cc1	-8%	1.3	10	-6	1
(next part)
SMILES	Mtb growth	RecA intein inh	Arbovirus anti	Mtb bLac sens	YopH inh	others
COc1ccc(Cl)cc1Nc1ncnc2sc(C)c(S(=O)(=O)N3CCC(C)CC3)c12	-1%	5.7	3	-8	-22
COc1ccccc1NC(=O)c1ccc(NS(C)(=O)=O)cc1	1%	-1.6	0	3	-15
CCNC(=O)C1CC(=O)N(c2ccc(OCC)cc2)C1 (stereo not drawn)	6%	-0.9	2	-3	-39
CCCN(CC1CC1)C(=O)COC(=O)c1[nH]c(C)c(C(=O)OCC)c1C	-6%	-3.2	11	-8	2
CN(C)C(CNc1ncnc2sc3c(c12)CCCC3)c1ccco1 (stereo not drawn)	1%	-1.0	-5	33	·
CCC(C)N1C(=O)S/C(=C/c2ccc(N3CCOCC3)cc2C)C1=O (stereo not drawn)	56%	0.1	-10	63	-25
CC(C)c1ccc(N(C(=O)c2ccco2)C(C(=O)NC2CCCC2)c2ccncc2)cc1 (stereo not drawn)	·	5.9	·	2	·
CC(C)CCNC(=O)c1ccc(NC(=O)C2=CSCCO2)cc1	·	-6.8	·	-3	·
C/C(=N\Nc1ccc(C(=O)O)cc1)c1ccc2c(c1)Nc1ccccc1S2	2%	·	·	69	·
Nc1[nH]c(N=NC(=O)c2ccc(Cl)cc2)c2ccccc12	3%	-0.3	-11	7	-30
CCS(=O)(=O)c1nc2ccccc2n1CC(=O)N1CCOCC1	1%	-0.6	4	-9	18
Cn1cc(Br)c(C(=O)N2CCN(c3cccc(Cl)c3)CC2)n1	-2%	-5.6	-6	7	1
COc1ccc(Cl)cc1NC(=O)C1CCCO1 (stereo not drawn)	-4%	0.2	-4	-3	-27	Arbovirus anti repeat=-10
COCCNC(=S)N(CCc1c(C)[nH]c2ccc(OC)cc12)Cc1ccco1	·	-0.3	·	1	·
Cc1ccc(-c2cccc(C(=O)NCc3ccccc3)n2)c2ccccc12	44%	12	-20	-6	5
COc1ccc(N2CCN(CCCNS(=O)(=O)c3c(C)noc3/C=C/N(C)C)CC2)cc1	0%	1.1	8	-7	0	Arbovirus anti repeat=4
CC(=O)N1CCc2c(sc(NC(=O)C3CCCCC3)c2C(N)=O)C1	·	7.0	·	-5	·
COC(=O)c1cc(=O)n(CCc2ccccc2F)c(=Nc2ccc(F)c(Cl)c2)s1	21%	14	-40	13	-49
O=C(CCC(=O)c1ccc(Cl)cc1)OCC(=O)c1ccccc1	-4%	-2.1	-4	-12	-35
O=C(CSc1nc(-c2ccco2)cc(C(F)(F)F)n1)Nc1ccc(C(=O)N2CCOCC2)cc1	-2%	0.5	4	-6	-12
CSc1nsc(SCc2ccc(Cl)cc2)n1	2%	9.0	0	3	-8
CC(C)(CO)NC(=O)Nc1ccc(Cl)c(Cl)c1	0%	-5.8	-3	-2	·
O=C(COC(=O)c1ccccc1SCC(=O)NC1CCS(=O)(=O)C1)NC1CCS(=O)(=O)C1 (stereo not drawn)	5%	1.3	-1	-11	·
CC(=O)c1cc(NC(=O)c2ccccc2)c(=O)oc1C	-3%	-3.0	-2	0	·
COC(=O)C1(CC2CC(c3cccc(Br)c3)=NO2)CCN(C(=O)OC(C)(C)C)CC1 (stereo not drawn)	·	8.2	·	1	·
N#Cc1ccc(OCC(=O)n2cc(C(=O)c3cc(Cl)cc(Cl)c3O)cn2)cc1	2%	-0.2	·	2	·
Cc1cc(OCc2ccc(C(=O)n3cccn3)o2)ccc1Cl	-6%	19	7	33	1
COc1cccc(CN2C(=O)Nc3ccccc3C(=O)N2C(C)(C)C)c1	-3%	-1.3	0	-8	7
O=C(COc1ccccc1)Nc1ccc(S(=O)(=O)N2CCOCC2)cc1	-5%	-7.6	7	1	-45
COc1cc(C(=O)NCCc2ccc3c(c2)OCCO3)ccc1OCC(=O)N1CCOCC1	-2%	-0.2	-2	-4	-6	Arbovirus anti repeat=-1
O=C(Cc1ccc(F)cc1)N(c1ccccc1)C1C=CS(=O)(=O)C1 (stereo not drawn)	-10%	-3.4	1	-4	-37
CN1CC(=O)N(C)c2ncn(Cc3ccccc3)c2C1=O	-5%	0.2	2	14	-13
COc1ccc(CCNC(=O)CSc2nnc3ccc(-c4ccncc4)nn23)cc1	-3%	1.1	4	-8	·
O=Cc1cn(-c2ccccc2)nc1-c1cc2c(ccc3ccccc32)oc1=O	·	·	2	-1	-24
